# High-throughput results as filed in PubChem.
# Sa helicase inh = S. aureus DNA helicase inhibition; inhibition, %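 (tested at about 80 µM)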; hit rate 0.05% among 120,000; purified S. aureus helicase, fluorescence unwinding assay; about half of the hits fall short of the stated cut; AID 485395;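 active = both duplicates at 50% or more, or one of them with a favoured structure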;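 note: 0% = mean of negative control wells and 100% = mean of positive control wells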
# MgrA-DNA mod = alters Staphylococcus aureus MgrA binding to DNA | inhibition, %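 (about 10 µg/mL by stock and volumes)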 | AID 602314 | hit rate 0.13% among 84,000 | fluorescence polarization;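 active = above 50% in either of two replicates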;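 note: 0% = protein plus DNA without compound and 100% = DNA alone without protein; higher means less MgrA bound to DNA so lower polarization; one replicate is shown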
# * hit, by the source's call; · = no result given. Some of the compounds tested. The share of hits here may be higher or lower than overall.
SMILES,Sa helicase inh,MgrA-DNA mod
CSC1=C(C#N)C(c2ccccc2Cl)C(C(=O)c2ccccc2)=C(C)N1 (stereo not given),-3,-0.2
COC(=O)Cn1c(=NC(=O)C2CC2)sc2c(C)cc(C)cc21,10,·
CC(CC(=O)O)CC(=O)Nc1cc(Cl)cc(Cl)c1 (stereo not given),·,-2.5
Cc1cc(C)n2nc(C(C)(C)C)c(Cl)c2n1,·,-3.0
O=c1c2sccc2[nH]c(=S)n1Cc1ccccc1,-15,·
O=C(OCC(=O)N1CCN(C(=O)c2ccco2)CC1)c1ccc2c(=O)n3c(nc2c1)CCC3,-11,·
NCC(=O)NC(Cc1ccccc1)C(=O)O (stereo not given),·,-0.6
c1ccc2c(c1)c(NCC1CCCO1)nn1nnnc21 (stereo not given),-2,·
c1ccc2c(c1)ncn2CC1CCCCC1,9,1.5
CC(C)C(=O)Nc1cccc2nsnc12,-2,1.6
CCNc1nc(NCC)n2c(SCC(=O)N(CC)C3CCCCC3)nnc2n1,-2,·
CCC(=O)Nc1ccc(NC(=O)CC)cc1,11,1.3
CCc1c(C)[nH]c(N)nc1=S,10,8.9
CC1=C(C(N)=O)C(c2ccccc2Cl)N2C(=O)CSC2=N1 (stereo not given),3,·
N#Cc1c(F)cccc1N(Cc1cccnc1)C(=S)Nc1ccc(Cl)c(Cl)c1,·,0.1
Cc1cc2c(cc1C)NC(=O)CC(c1ccccc1O)=N2,10,4.3
Cc1ccc(S(=O)(=O)Cc2ccc(C(=O)O)o2)cc1,-5,·
O=C(COc1ccc2ccc(=O)oc2c1)NC(=O)Nc1ccc2c(c1)OCCO2,-9,·
CCCN1CCC(NC(=S)Nc2ccc(C(=O)OCC)cc2)CC1,7,2.5
O=C(Nc1ccc2c(c1)OC1(CCCC1)O2)C1CC(=O)N(C2CCCC2)C1 (stereo not given),-1,·

# 2 of these compounds in another layout.
Structure	Sa helicase inh	MgrA-DNA mod
Cc1cc(C)n2nc(C(C)(C)C)c(Cl)c2n1	·	-3.0
O=c1c2sccc2[nH]c(=S)n1Cc1ccccc1	-15	·

# Following part.
SMILES,Sa helicase inh,MgrA-DNA mod
CSC1=NCCN1CC(=O)c1ccc(C)cc1,·,1.1
CC1=NN(CCC#N)C(=O)/C1=C\c1ccc(N)cc1,14,·
O=C1Oc2ccccc2C(=O)/C1=C\N1CCCc2ccccc21,5,·
O=C1Nc2cc(C(=O)N3CC=C(c4ccccc4)CC3)ccc2Sc2ccccc21,-18,·
CCc1cc2cc(C(=O)N3CCN(c4ccccc4)CC3)sc2s1,-21,4.3
Cn1c(=O)c2cc(S(=O)(=O)NC(C(=O)N3CCc4ccccc43)c3ccccc3)ccc2n(C)c1=O (stereo not given),2,·
O=C1CSC(=S)N1/N=C/c1cccs1,-12,·
CSc1nnc(C2CCCN2C(=O)OC(C)(C)C)o1 (stereo not given),-1,1.5
O=c1[nH]cc(-n2c(=O)c3ccccc3c3ccccc3c2=O)c(=O)[nH]1,10,·
Cc1cc(NC(=O)c2ccc(Cl)cc2)c(C(C)C)c(S(=O)(=O)c2ccccc2)c1O,11,-1.1
CC1=CC(C)C2C(=O)N(Cc3ccco3)C(=O)C2C1 (stereo not given),-3,·
COc1ccc(-c2cc(-c3ccc(F)cc3)nc(N3CCOCC3)n2)cc1,3,·
N#C/C(=C/c1ccc(Sc2ccccc2)o1)c1cccc(F)c1,12,10
CC(CNc1ccccc1)C(=Nc1ccccc1)Nc1ccccc1 (stereo not given),·,-1.4
N#Cc1cc2c(nc1SCc1ccncc1)CCC2,3,1.4
Cc1cccc(N2CCN(S(=O)(=O)c3ccc4c(c3)n(C)c(=O)n4C)CC2)c1C,-25,·
c1ccc2c(Nc3nc(-n4ccnc4)nc(-n4ccnc4)n3)cccc2c1,-7,-0.2
Nc1nc2n(n1)C(c1ccco1)CC(c1ccc(F)cc1)N2 (stereo not given),20,-1.7
O=C(NCCc1ccccn1)c1cccc(S(=O)(=O)N2CCc3ccccc32)c1,-16,·
CC12CC3CC(C)(C1)CC(C(=O)NCCCN1CCCC1=O)(C3)C2,0,-2.2
COc1ccc(CCNC(=O)c2cc3c(=O)[nH]c4ccc(C)cc4c3s2)c(OC)c1,19,-0.5
COc1cc2nc(C(C)(C)C)oc(=O)c2cc1OC,·,-2.1
CCOc1ccc(C(=O)Nc2ccc(-c3nnc4n3CCCCC4)cc2)cc1,-3,-0.2
FC(F)(F)c1cc(-c2ccc(Cl)cc2)nc2cc(-c3ccccc3)nn12,·,-2.4
COC(=O)c1ccc(CO/N=C/C(=O)Nc2cccc(C(F)(F)F)c2)o1,8,·
N/C(=N/O)c1cn(-c2ccccc2)nc1-c1ccccc1,-14,-1.8
CC(C)(O)C(C)(C)CN(Cc1ccccc1)Cc1ccccc1,·,2.5
CCn1c(SCC(=O)NC2CCCC2)nnc1-c1ccccc1,-3,-1.2
Cc1cc2c(ccc3nonc32)nn1,21,·
CC(C)N1C(=O)CSC1c1cccs1 (stereo not given),-3,2.0
CNc1cc(Cl)nc(SC)n1,·,-0.3
C(=C\C1Nc2ccccc2-c2nnc(SCc3ccccc3)nc2O1)/c1ccco1 (stereo not given),7,14
O=C(CSc1nc(-c2ccccc2)cc(C(F)(F)F)n1)NCCN1CCOCC1,1,0.7
S=c1[nH]c2ccccc2n1-c1ccccc1,-2,·
CN1CCN(Cc2c(O)ccc3c(=O)c(-c4ccccc4Cl)c(C(F)(F)F)oc23)CC1,·,-0.3
COC(=O)c1c(C)oc(C)c1S(=O)(=O)NC(c1ccccc1)c1ccccc1,·,0.2
N#CCC(=O)Nc1ccc(C(=O)NCc2ccccc2)cc1,-1,·
O=C(O)CC12CC3CC(CC(C3)C1(F)F)C2,21,1.5
FC(F)Oc1ccc(-c2csc(=Nc3cccnc3)n2C2CC2)cc1,6,·
N#Cc1ccccc1NC(=O)c1cc2c(s1)-c1ccccc1SC2,10,2.3
CC(=O)N1CCN(C(=O)CSc2nc(-c3ccc(F)cc3)cs2)CC1,-13,·
Cn1cccc1C(=O)NN,-13,·
CC1CCc2sc(C(=O)N/N=C/c3ccco3)cc2C1 (stereo not given),-2,·
CC1(C)CC(=O)C(C(=N)Cc2ccccc2)=C(O)C1,-5,-0.4
COc1ccc(C2C(C(=O)Nc3cccc(C)n3)c3ccccc3C(=O)N2c2ccc(OC)cc2)cc1 (stereo not given),13,-0.5
CCOc1cc(C#N)c(NC(=O)Cn2nnc3ccccc32)cc1OCC,-5,·
NC(=O)COc1cc2oc(=O)c3c(c2cc1Cl)CCCC3,-4,0.5
Cn1c(=O)[nH]c(=O)c2c1nc(Br)n2CC(O)COc1ccc(Cl)cc1Cl (stereo not given),-2,-1.4
O=C(Cn1c2c(c(-c3ccccc3Cl)cc1=O)CCC2)NCC1CCCO1 (stereo not given),1,·
N#CC1=C(N)SC(N)=C(C#N)C1,-5,8.6

# Carrying on:
SMILES,Sa helicase inh,MgrA-DNA mod
CCn1c(=NC(=O)CSCC(=O)Nc2nccs2)sc2ccccc21,-15,·
C#C[C@]1(OC(C)=O)CCC2C3CCC4=CC(=O)CC[C@@H]4C3CC[C@@]21C (stereo not given in full),·,4.0
CN(Cc1ccccc1)C(=O)c1cc(-c2ccco2)nc2ccccc12,3,-3.6
CCCC(C(=O)c1ccccc1)n1cncn1 (stereo not given),4,·
COc1cc(C(=O)N(C)c2ccccc2)cc(OC)c1OC,18,-1.0
O=C(CN1C(=O)C2(OCCO2)c2ccccc21)c1ccccc1,·,-1.5
COc1ccc(OCCSc2nc(C)cc(=O)[nH]2)cc1,-4,0.2
CC(=O)Nc1ccc(S(=O)(=O)Nn2cnnc2)cc1,8,0.5
CNC(=O)Nc1ccc(Oc2cncc(Cl)c2)nc1,21,·
CN(C)S(=O)(=O)N1CCN(c2ccccc2)CC1,11,-0.9
CN(Cc1cccs1)C(=O)c1cc(Br)c(Br)s1,3,·
O=C(CS(=O)(=O)c1cn(Cc2ccc(Cl)cc2)c2ccccc12)Nc1ccccc1,8,2.3
O=C(COC(=O)C1CC2C=CC1C2)c1ccccc1 (stereo not given),-17,1.0
CS/C(=C(/C#N)S(=O)(=O)c1ccc(Cl)cc1)N1CCSCC1,·,0.3
CCOC(=O)C1C(=O)C=C(c2cccc(OC)c2)CC1c1ccc(CC)cc1 (stereo not given),0,0.9
O=C(Nc1ccccc1)N1CCCc2ccccc21,11,-2.0
O=C1C2c3ccccc3CCN2C(=O)CN1CCc1ccccc1 (stereo not given),6,3.6
Cc1nn(-c2ccccc2)c2nc3ccccc3c(N3CCOCC3)c12,-6,·
C/C(=N\OCc1ccc(C(=O)N2CCOCC2)o1)c1ccc(Cl)cc1Cl,0,·
C=CCc1cccc2cc(C(=O)Nc3c(C)n(C)n(-c4ccccc4)c3=O)c(=O)oc12,·,0.1
Cc1onc(-c2c(Cl)cccc2Cl)c1/C=C1/C(=O)Nc2ccccc21,·,2.3
COc1cccc(CNC2=NCCC2)c1,-4,·
O=C1CSC(=S)N1CC1CCCO1 (stereo not given),7,·
CCCC(=O)N1c2ccccc2C(N(C(C)=O)c2ccccc2)CC1C (stereo not given),-33,·
CNCC(=O)N(C)C,-14,·
Cc1ccc(OC(=O)c2cc(C)nn2C(C)(C)C)cc1,·,-1.9
COc1ccc(NC(=S)N2CCCCC2)cc1,-9,·
CCc1nc2ccccc2c(C(=O)OCC(=O)c2ccc3c(c2)OCCO3)c1C,5,·
O=C(COc1ccc(F)cc1)N/N=C/c1ccc2c(c1)OCCO2,7,·
CC(CN(C)Cc1ccccc1)OC(=O)c1ccco1 (stereo not given),1,·
CCCC1c2ccsc2CCN1C(=O)c1ccc(Cl)cc1 (stereo not given),·,-2.1
ONC(=Nc1ccccc1C(F)(F)F)c1cccnc1,·,-2.5
O=C1NCCCCC1N1CCS(=O)(=O)CC1 (stereo not given),·,-0.6
Cn1c(N)c(C(=O)Cn2nnc(-c3cccc(C(F)(F)F)c3)n2)c(=O)n(C)c1=O,-23,·
Cc1nn(CC(=O)NC2CCC(C)CC2)c(=O)c2cc3sccc3n12 (stereo not given),-2,·
CC(=O)Nc1ccc(C(=O)CSc2nc(C)cc(=O)[nH]2)cc1,9,1.1
Cc1cc(-c2ccccc2C(=O)Nc2ccccc2O)on1,·,0.0
O=C(CSc1nnc(-c2ccc(F)cc2)o1)C12CC3CC(CC(C3)C1)C2,-2,·
OC(CCN1CCCCC1)c1ccc(-c2ccccc2)cc1 (stereo not given),·,-0.3
O=C(O)Cn1cc(CN2CCCC2)c2ccccc21,8,-4.4
OCCCCC1OC2CCCCC2C2=CCCCC21 (stereo not given),15,-2.9
CCn1c(O)c(C=NC2CCCCCC2)c(=O)[nH]c1=S,13,1.4
O=c1c2ccccc2c(/C=N/C2=NCCS2)c(O)n1-c1ccc(Cl)cn1,24,·
COc1ccc(-n2nc3ccc(NC(=O)CSc4ccc(Cl)cc4)cc3n2)cc1,5,0.2
CC(=O)N1C(=O)/C(=C\C(=O)c2ccc(C)cc2)c2ccccc21,-17,-1.7
Cc1[nH]c2ccccc2c1CCNC(=O)c1cc2cc(Br)ccc2oc1=O,0,-1.9
COC(=O)C1SCCN1S(=O)(=O)c1ccc(Cl)cc1 (stereo not given),·,0.6
COc1ccc(C2(C#N)CCc3[nH]c4ccccc4c3C2)cc1OC (stereo not given),-11,1.6
CC(C)n1c(N2CCN(Cc3ccc(Cl)cc3)CC2)nc2ccccc21,-4,-0.9
O=c1ccc(-c2ccccc2)no1,·,-1.0

# New compounds follow.
SMILES,Sa helicase inh,MgrA-DNA mod
COc1ccc(S(=O)(=O)c2cnc3cc(OC)c(OC)cc3c2N2CCC(C)CC2)cc1,6,·
COc1ccc(Br)c2c1-c1nc(/N=C/c3ccc(C)cc3)sc1C2,14,-0.2
CCOc1ccc(/C=C2/N=C(c3cccc([N+](=O)[O-])c3)OC2=O)cc1,·,-0.6
Cc1cc(C(=O)CSCc2nnc3n(CCC(C)C)c(=O)c4ccccc4n23)c(C)n1C,-15,·
Cc1nc(-c2cccs2)sc1C(=O)N1CCN(S(=O)(=O)c2ccccc2C(F)(F)F)CC1,7,·
CC(=O)Nc1ccc(NC(=O)NC2(c3ccccc3)CC2)cc1,-14,-0.8
COc1cccc(/C=C2/SC(=Nc3ccccc3Cl)NC2=O)c1,·,0.0
CN(C)c1nc(Oc2ccc(=O)n(-c3ccccc3)n2)nc(N2CCOCC2)n1,5,·
[O-][n+]1ccccc1SC/C=C/c1ccccc1,·,-1.2
CC(C)CCn1c(=O)c2ccccc2n2c(COC(=O)C3CC=CCC3)nnc12 (stereo not given),6,·

# Molecules from the list above that contain an aryl thioether with sulfur outside any ring, in the order listed:
SMILES,Sa helicase inh,MgrA-DNA mod
CCNc1nc(NCC)n2c(SCC(=O)N(CC)C3CCCCC3)nnc2n1,-2,·
CSc1nnc(C2CCCN2C(=O)OC(C)(C)C)o1 (stereo not given),-1,1.5
N#C/C(=C/c1ccc(Sc2ccccc2)o1)c1cccc(F)c1,12,10
N#Cc1cc2c(nc1SCc1ccncc1)CCC2,3,1.4
CCn1c(SCC(=O)NC2CCCC2)nnc1-c1ccccc1,-3,-1.2
CNc1cc(Cl)nc(SC)n1,·,-0.3
C(=C\C1Nc2ccccc2-c2nnc(SCc3ccccc3)nc2O1)/c1ccco1 (stereo not given),7,14
O=C(CSc1nc(-c2ccccc2)cc(C(F)(F)F)n1)NCCN1CCOCC1,1,0.7
CC(=O)N1CCN(C(=O)CSc2nc(-c3ccc(F)cc3)cs2)CC1,-13,·
COc1ccc(OCCSc2nc(C)cc(=O)[nH]2)cc1,-4,0.2
CC(=O)Nc1ccc(C(=O)CSc2nc(C)cc(=O)[nH]2)cc1,9,1.1
O=C(CSc1nnc(-c2ccc(F)cc2)o1)C12CC3CC(CC(C3)C1)C2,-2,·
COc1ccc(-n2nc3ccc(NC(=O)CSc4ccc(Cl)cc4)cc3n2)cc1,5,0.2
[O-][n+]1ccccc1SC/C=C/c1ccccc1,·,-1.2
